Tg IFNy HTS – inhibitors of Toxoplasma gondii growth with IFN-gamma; Toxoplasma gondii growth in IFN-gamma-treated host cells; hits give low values; reference of the scale not given here; activity change, negative = inhibition, %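 (about 20 µM by stock and volumes)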; 69,000 compounds, 3.8% hits;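 active = below -70%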;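 also: host cells are HeLa cells infected with Toxoplasma gondii; parasite growth read as luciferase light; one replicate is shown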
Numbers without * were called inactive; i = inactive; & = joins results of further samples.

SMILES	Tg IFNy HTS
C[C@H](CO)N1C[C@H](C)[C@@H](CN(C)Cc2cccc(C(F)(F)F)c2)OCc2cnnn2CCCC1=O	20
CCC(CC)CN1C[C@H]2OCCN(Cc3cnn(C)c3)[C@H]2C1	0
Cc1cc(C(=O)NC(C)c2nnc3n2CCNCC3)c2ccc(F)cc2n1 (stereo not drawn)	-7
COc1ccc(NC(=O)N2CCC3(CC2)Nc2ccccc2-n2cccc23)cc1	90
O=C(Nc1ccc(Cc2ccncc2)cc1)c1ccc(Cl)cc1	-33
c1ccc2oc(-c3csc(-c4ccc(-c5ccno5)s4)n3)cc2c1	66
CC(=O)N1CCC2(CCCN2C(=O)c2ccno2)CC1	-5
CCn1c(C2CCCN(C(=O)CCN3CCCO3)C2)nn(C)c1=O (stereo not drawn)	0
COc1ccc(-c2nc(NCCCN3CCN(c4ccccc4)CC3)c3ccccc3n2)cc1	57
COc1ccccc1NC(=O)Cn1c(=O)n(Cc2ccco2)c(=O)c2sccc21	-58
CCN(CC)C(=O)Cn1nc2c(C)cc3ccc(OC)cc3n2c1=O	-9
O=C(Cn1nnc(-c2ccccc2)n1)N1CCCCC1	18
Cc1nn(CC(=O)NCCC(C)C)c(=O)c2nc(-c3ccccc3)sc12	12
Nc1ncnc2nc(N3CCCC3)ncc12	-69
O=C(Cn1ncc2c(N3CCN(c4ccccc4)CC3)ncnc21)Nc1cccc(Cl)c1	31
Cc1ccc(C)c(OCCN(C)Cc2cc3ccccc3n(C)c2=O)c1	83
Cc1nc(CNC(=O)C(C)Cn2cccn2)cs1 (stereo not drawn)	9
Cc1ccc(-c2nc(Cn3nnc(-c4nc(-c5cccc(Br)c5)no4)c3C)c(C)o2)cc1	6
COc1ccc(NC(=O)CN2C(=O)CCc3cc(S(=O)(=O)N4CCCCC4)ccc32)cc1Cl	-31
COc1cc(C(C)=O)cc(OC)c1O	4
CN1CCC2(CN(c3ncccn3)CC23CCN(C(=O)C2CCOCC2)CC3)C1=O (stereo not drawn)	1
O=C(O)c1cc2cccc([N+](=O)[O-])c2[nH]1	22
O=C(C[C@H]1CC[C@@H]2[C@H](COC[C@@H](O)CN2C(=O)c2cnccn2)O1)N1CCN(c2ccccc2)CC1	-16
CNC[C@H]1Oc2ccc(NC(=O)CCC(F)(F)F)cc2C(=O)N([C@@H](C)CO)C[C@@H]1C	14
O=C(CCc1cccnc1)N[C@@H]1c2ccccc2C2(CCNCC2)[C@H]1O	-1

Fetched by structure from above, 4 records:
SMILES	Tg IFNy HTS
Nc1ncnc2nc(N3CCCC3)ncc12	-69
COc1cc(C(C)=O)cc(OC)c1O	4
c1ccc2oc(-c3csc(-c4ccc(-c5ccno5)s4)n3)cc2c1	66
CNC[C@H]1Oc2ccc(NC(=O)CCC(F)(F)F)cc2C(=O)N([C@@H](C)CO)C[C@@H]1C	14

(listing goes on)
SMILES	Tg IFNy HTS
Cc1ccc(C(=O)Nc2cnc3n2CCCC3)cc1N1CCNC1=O	2
CO[C@@H]1CN(C)C(=O)c2ccc(NC(=O)C3CCC3)cc2OC[C@@H](C)N(Cc2ccccn2)C[C@@H]1C	22
COc1c(C=O)c(CCN(C)C(=O)c2ccc(F)cc2)cc2c1OCO2	2
Cc1noc(CCC(=O)Nc2ccc(Cl)c(-c3nc4ccccc4s3)c2)n1	10
C[C@H](O)C#Cc1ccc([C@H]2[C@@H](CO)N3CCCCN(CC4CC4)C[C@H]23)cc1	15
Cc1nn(CC(=O)O)c2c1C(c1sc3ccccc3c1C)CC(=O)N2 (stereo not drawn)	-3
CCOC1(C)C(=O)c2ccc(C(C)C)cc2N1Nc1cc(C(C)C)ccc1C(=O)CC (stereo not drawn)	-44
CCc1nc(C)c(C(=O)NC(C)c2nnc3n2CCNCC3)o1 (stereo not drawn)	-47
Cc1ccc2c(c1C)-n1cccc1C1(CCN(S(=O)(=O)c3cc(F)ccc3F)CC1)N2	11
CN1C(=O)c2cc(NC(=O)C3CCOCC3)ccc2OC[C@H]2O[C@H](CC(=O)NCC3CCCCC3)CC[C@@H]21	6
COc1ccccc1-n1cc(-c2ccnc(NCCc3cnccn3)n2)cn1	-28
Cc1cccc(Cn2cnc3sc4c(c3c2=O)CCCC4)c1	-44
CCn1c(=N)c(C(=O)OC)cc2c(=O)n3cc(C)ccc3nc21	51
CCS(=O)(=O)N1CCN(Cc2nc(-c3ccc(C(=O)NC)cc3)oc2C)CC1	54
COCCN(Cc1ccc2c(c1)n(C)c(=O)n2C)Cc1cnn2cccnc12	-8
Cn1c(=O)c(Cc2ccccc2)c(O)c2ccccc21	44
Cc1ccc2c(c1)NC1(CCN(S(=O)(=O)c3ccc4c(c3)oc(=O)n4C)CC1)c1cccn1-2	15
Cc1cccc(NC(=O)N2CCC(c3nc(C(=O)N(C)C)c(C)o3)CC2)c1	52
CN(C)CCN1C2(CCN(S(=O)(=O)c3ccccc3)C2)c2ccccc2S1(=O)=O (stereo not drawn)	1
CCN1c2ccc(F)cc2C(=O)NC12CCN(C(=O)c1ccc(C)cc1)CC2	9
OCCn1ccnc1-c1cccc(Oc2ccccc2)c1	8
C[C@@H]1CN([C@H](C)CO)C(=O)CCCn2nncc2CO[C@@H]1CN(C)S(=O)(=O)c1ccc(Oc2ccccc2)nc1	143
O=C(c1ccncc1)N1CCC2(C1)c1ccccc1S(=O)(=O)N2Cc1ccc(F)cc1 (stereo not drawn)	11
Cc1ccccc1OCC(=O)OC(C)CN1CCOCC1 (stereo not drawn)	219
CN1CCN(C(=O)C[C@@H]2CC[C@H]3[C@@H](COC[C@@H](O)CN3C(=O)Nc3ccc4c(c3)OCO4)O2)CC1	-33

(continued)
SMILES	Tg IFNy HTS
O=C(Nc1cc(F)ccc1F)N[C@H]1CC[C@H](CC(=O)N2CCc3ccccc3C2)O[C@@H]1CO	-51
Cc1ccc(CNC2=NCCNC23CCN(S(=O)(=O)c2cc(C)c(C)cc2C)CC3)cc1	-44
CC(=O)Nc1cc2cc(Cl)cc(Cl)c2oc1=O	-6
CCCCN(Cc1ccccc1)C(=O)c1cc2cccnc2n(Cc2ccc(Cl)cc2)c1=O	29
CC(=O)c1cc(C(=O)NC2CCN(Cc3cccc(F)c3)CC2)cs1	-31
Cc1ccc(-c2nccs2)c(-n2cccn2)c1	-6
COc1ccc(CNc2ccc(C)c(C)c2)cc1OC	73
Cc1ccc(C)c(OCC(=O)N2CCCCC2c2cccnc2)c1C (stereo not drawn)	36
CC(C)N1CC2(COC(C(=O)NCCc3cccnc3)C2)c2ccccc21 (stereo not drawn)	-12
Cc1oc(-c2ccccc2Cl)cc1C(=O)N1CCNC(=O)CC1	-31
COc1ncc(C(=O)N2CCC(O)(c3ccc(C)cn3)CC2)cn1	-19
O=C(O)c1ccc(C(F)(F)F)[nH]c1=O	-16
CCCn1c(C)cc2cc(NC(=O)C3CC(=O)N(CCN(C)C)C3)ccc21 (stereo not drawn)	-1
N#Cc1ccc(-c2ccc([C@@H]3[C@@H](CO)N4C(=O)CNC[C@H]34)cc2)cc1	-25
O=C(C[C@H]1CC[C@H](NC(=O)c2cccnc2)[C@H](CO)O1)NCc1ccc(Cl)c(Cl)c1	-24
CC(=O)N1CCC(C(=O)NCc2ccccc2)(N(C(=O)c2ccc(C)cc2)c2cccc(F)c2)CC1	-24
COc1ccc(CNC(=O)Cn2nc(C(F)(F)F)c(Br)c2C)cc1	15
O=C(CN1CCOCC1)NC1CCN(CC2(c3ccccc3)CCCCC2)CC1	-59
O=S(=O)(c1ccccc1)N1CCCCN2[C@H](CO)[C@H](c3ccc(C#CC4CCCC4)cc3)[C@@H]2C1	-1
CCS(=O)(=O)NCCc1sc(-c2ccc(OC)cc2)nc1C	i
COc1ccc(F)c(CN2CCCC(Cn3ccnc3)C2)c1 (stereo not drawn)	0
Cc1cc(NS(=O)(=O)c2cc(Cl)sc2Cl)no1	-25
COc1ccc2c3c([nH]c2c1)[C@H](CO)N(C(=O)Nc1ccc(F)cc1)CC31CCN(CC2CCOCC2)CC1	-44
CC(C)(c1ccc(Oc2cccc(N)c2)cc1)c1ccc(Oc2cccc(N)c2)cc1	1
C[C@@H]1CN([C@H](C)CO)C(=O)CCCn2nncc2CO[C@@H]1CN(C)Cc1ccc(C(=O)Nc2ccccc2N)cc1	5

Entries listed so far that contain a CF3 group, in the order listed:
SMILES	Tg IFNy HTS
C[C@H](CO)N1C[C@H](C)[C@@H](CN(C)Cc2cccc(C(F)(F)F)c2)OCc2cnnn2CCCC1=O	20
CNC[C@H]1Oc2ccc(NC(=O)CCC(F)(F)F)cc2C(=O)N([C@@H](C)CO)C[C@@H]1C	14
O=C(O)c1ccc(C(F)(F)F)[nH]c1=O	-16
COc1ccc(CNC(=O)Cn2nc(C(F)(F)F)c(Br)c2C)cc1	15

(continued)
SMILES	Tg IFNy HTS
CCCN1CCc2nc(SCc3nc(-c4ccc(OCC)c(OC)c4)oc3C)[nH]c(=O)c2C1	15
COCCN1CCN(C)C2(CCN(Cc3nccn3C)CC2)C1=O	3
O=C1NN=C2CC34CCC12CC3=NNC4=O	-31
COc1ccc(-c2cnc3c(c2)C(=O)N([C@H](C)CO)C[C@@H](C)[C@@H](CN(C)C(=O)Nc2c(C)noc2C)O3)cc1	-58
Cc1nn(-c2ccc(F)cc2)c(C)c1C(=O)N1CCCC2(CC1)CNC(=O)O2 (stereo not drawn)	-2
COc1ccc(-c2nc3c(s2)CN(S(=O)(=O)c2cccc(F)c2)CC3)cc1OC	29
CC1(c2ccccc2)OC(=O)C(C#N)C12CCCCC2 (stereo not drawn)	-23
CNC[C@@H]1OCCCC[C@@H](C)Oc2ccc(NS(=O)(=O)c3ccc(F)cc3)cc2C(=O)N([C@@H](C)CO)C[C@H]1C	-23
CCc1noc(CN(CC)C(=O)CC2C(=O)Nc3cc(C)cc(C)c32)n1 (stereo not drawn)	41
COc1cccc(S(=O)(=O)N2CCn3cnc(COCC4CC4)c3C2)c1	0
N#CCCNC(=O)c1cc2c(c3ccccc3n2CC2CC2)n1-c1ncccn1	-46
N#C[C@H]1[C@@H](c2ccccc2)[C@@H](CO)N1S(=O)(=O)c1cccc(F)c1	13
CO[C@@H](CN(C)C(=O)c1ccccc1F)[C@@H](C)CN([C@H](C)CO)S(=O)(=O)c1ccc(F)cc1	29
COc1ccc(Br)cc1-c1nc(Cn2ccn3nc(-c4ccccc4)cc3c2=O)c(C)o1	165
C[C@@H]1CCCCO[C@H](CN(C)C(=O)Nc2cccc3ccccc23)[C@H](C)CN([C@@H](C)CO)C(=O)c2cc(NC(=O)CCC(F)(F)F)ccc2O1	i
Cc1ccc(N2CC[C@H]3CN(C(=O)c4ccc(O)cc4)C[C@@H]3C2)nn1	-40
CN(C)C(=O)c1ccc(-c2ccc(C3[C@@H]4CN(S(=O)(=O)c5ccccc5F)C[C@H]3N4)cc2)cc1 (stereo partly drawn)	-23
COC(=O)c1cc(C)nc2c1c(=O)n(Cc1nc(-c3ccc(C)cc3)oc1C)c(=O)n2-c1ccccc1	7
O=C(CCc1ccc2c(c1)OCO2)N[C@@H]1c2ccccc2C2(CCNCC2)[C@H]1O	5
COc1cc(NC(=O)C2=C(C)C(=O)OC23CCN(C(C)C)CC3)cc(OC)c1	48
CCn1cc(NC(=O)CC2CCNCC2)c(C)n1	60
O=C1NCCN1CCn1ccnc1-c1ccc(-c2ccccc2Cl)o1	43
CCN1C(=O)CCc2cc(NC(=O)Cc3ccc(OC)cc3Cl)ccc21	65
CCN(CC)Cc1ccc2cc(COC(=O)Nc3ccc(C(=O)NO)cc3)ccc2c1	-83*
O=C(C[C@H]1CC[C@@H](NC(=O)c2ccc(F)cc2)[C@@H](CO)O1)NCCc1ccccc1	-32

Following part:
SMILES	Tg IFNy HTS
Cc1cccnc1C(=O)N1CCC(c2cc(Cc3ccccc3)[nH]n2)CC1	-5
O=[N+]([O-])c1cccc2cn[nH]c12	-14&-29&-12
COc1ccc(-n2c(=O)c(C(=O)Nc3ccc(F)c(Cl)c3)c(O)c3cccnc32)cc1	139
CNC(=O)c1ccc(OC)c(-c2ccccc2OC(F)(F)F)c1	-7
COc1ccc(C(=O)N2C[C@@H]3[C@H](c4ccccc42)[C@@H](CO)N3Cc2ccccc2Cl)cc1	-5
Fc1ccccc1CNc1nc(-c2nnc(-c3cccc(Cl)c3)o2)nc2ccccc12	-80*
CCc1nc(C)sc1C(=O)N1CCC(Cc2cccc(C(N)=O)c2)C1 (stereo not drawn)	4
O=C(c1cnccn1)N1CCC(F)(F)C2(CCN(c3ccccn3)C2)C1 (stereo not drawn)	177
CS(=O)(=O)N1CC(=O)N2[C@H](C1)[C@H](c1ccc(C#Cc3ccc(F)cc3)cc1)[C@@H]2CO	-40
COC(=O)[C@@H]1C[C@@H](O)CN1C(=O)CCC(=O)NC1CCCCCC1	2
CCN1C(=O)[C@@H]2CN(C(C)=O)C[C@H]2C12CCN(C(=O)NCCc1ccc(OC)cc1)CC2	1
CC1NC(=O)COC12CCN(Cc1nccs1)CC2 (stereo not drawn)	-3
Cn1c2c(ccc1=O)CC(NC(=O)C1CCOC1)CC2 (stereo not drawn)	36
COc1ccccc1-c1cnc2c(c1)C(=O)N([C@@H](C)CO)C[C@H](C)[C@@H](CN(C)C(=O)CC1CC1)O2	-41
O=C(c1ccccc1-c1ncn[nH]1)N1CC(c2cccnc2)C1	-39
O=C(c1ccccc1)N1CCC2(COCc3cnc(NCc4ccco4)nc32)C1 (stereo not drawn)	-5
O=C(Cn1c(=O)ccc2cc(S(=O)(=O)N3CCCC3)ccc21)Nc1ccccc1	-42
CN(Cc1ccccc1)C(=O)[C@H](Cc1ccc2ccccc2c1)NC(=O)[C@@H]1CCCN1C(=O)Nc1ccccc1[N+](=O)[O-]	-33
CCCC(=O)Nc1ccc2c(c1)C(=O)N(C)[C@H]1CC[C@H](CC(=O)N3CCCCC3)O[C@@H]1CO2	-4
CSC1=NCC(=O)N1CCc1c[nH]c2ccccc12	-35
CC#CCN1CCC=C(CN(C)C(=O)/C=C/c2ccccc2)C1	-1

2 of these compounds in a different format:
COc1ccc(C(=O)N2C[C@@H]3[C@H](c4ccccc42)[C@@H](CO)N3Cc2ccccc2Cl)cc1
  Tg IFNy HTS: -5
Fc1ccccc1CNc1nc(-c2nnc(-c3cccc(Cl)c3)o2)nc2ccccc12
  Tg IFNy HTS: -80*

Source: PubChem BioAssay (Broad Institute)

These rows are one share of the data; count on the stated rates, not on these rows.
